RE007 growth inh = qHTS Assay for Inhibitors of the HIV-1 protein Vpr; 0.21% of 360,000 active; S. pombe RE007 Vpr strain, BacTiter-Glo ATP luminescence, 24 h; control for the full effect not named in the record; Potency, µM (highest dose often 92.2 µM), without a hit: top-dose activity change, negative = less growth; active = well fitted falling curve with a large enough effect; inconclusive = small, poorly fitted or top-dose-only effect; inactive = no such curve, though single readings can be large or run the other way;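 further: on the % scale 0 is the no-effect control and ±100 the full control effect; nearly all actives have a fitted effect of over 50% in size; the assay follows cell death caused by Vpr and the record does not say whether a fall means rescue or toxicity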
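Fission yeast RE007 carrying one integrated HIV-1 vpr copy, seeded at OD 0.01 in PMG+AL medium with 23 nL pinned compound. Grown 24 h at 30 degrees; viability read by BacTiter-Glo luminescence after 5 min.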
Cruzain noTriton = qHTS Assay for Promiscuous and Specific Inhibitors of Cruzain (without detergent). Cruzipain (Trypanosoma cruzi), P25779. purified cruzain, Z-FR-AMC fluorescence, no detergent. Potency, µM, inactives show max response, negative = inhibition, usual class: inhibitors. 2.3% of 200,000 active. AID 1476, 2009;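 further: plate controls were enzyme without inhibitor for no effect and buffer without enzyme for full effect; nearly all actives have a fitted effect of over 40% in size; top concentration of the series not given in the record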
Target sequence (P25779 123-467 limits assumed): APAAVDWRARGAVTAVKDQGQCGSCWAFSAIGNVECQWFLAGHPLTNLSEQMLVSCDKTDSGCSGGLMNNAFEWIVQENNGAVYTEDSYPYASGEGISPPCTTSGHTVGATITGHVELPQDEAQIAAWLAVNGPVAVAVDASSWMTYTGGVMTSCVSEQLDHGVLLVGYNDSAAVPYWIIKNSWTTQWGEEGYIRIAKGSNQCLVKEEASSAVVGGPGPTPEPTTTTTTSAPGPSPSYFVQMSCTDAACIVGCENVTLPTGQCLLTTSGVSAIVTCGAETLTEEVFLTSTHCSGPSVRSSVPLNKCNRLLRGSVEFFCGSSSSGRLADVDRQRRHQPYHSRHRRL
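Detergent-free condition (0.00005% Triton X-100) in acetate buffer pH 5.5 with DTT. 1.5 nM enzyme and compound were pre-mixed 15 min, then 2 uM Z-FR-AMC substrate added; reaction progress from fluorescence change between first and third reads (60 s).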
Lassa entry inh = qHTS for Inhibitors of binding or entry into cells for Lassa Virus. Lassa virus pseudotype entry inhibition, cell reporter; control for the full effect not named in the record. Potency, µM (highest dose often 37.9 µM), for inactives: at the top dose activity change, negative = inhibition, hits mostly inhibitors. 1.2% of 300,000 active; active means well fitted inhibition curve with a large enough effect; inconclusive means small, poorly fitted or top-dose-only effect, or effect the other way; inactive means flat fitted curve, though single readings scatter; tested in HEK293 cells; further: on the % scale 0 is the no-effect control and ±100 the full control effect; nearly all actives have a fitted effect of over 50% in size; luciferase read-out
Cruzain Triton = qHTS Assay for Promiscuous and Specific Inhibitors of Cruzain (with detergent); Potency, µM, without a hit: max response, negative = inhibition, usual class: inhibitors; purified cruzain, Z-FR-AMC fluorescence, 0.01% Triton; 0.43% of 200,000 active;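 further: plate controls were neutral wells for no effect and buffer without enzyme for full effect; nearly all actives have a fitted effect of over 40% in size; top concentration of the series not given in the record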
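Cruzain (1.5 nM) preincubated 15 min at RT with compound in 100 mM sodium acetate pH 5.5, 5 mM DTT, 0.01% Triton X-100. Reaction started with 2 uM Z-FR-AMC; AMC fluorescence (ex 360/em 450 nm) change over 60 s gave rate.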
StopGo reporter = High Throughput Screening for Foot and Mouth Disease Virus Antivirals | human cells with a luciferase reporter of 2A StopGo recoding; control for the full effect not named in the record | 1.2% of 410,000 active | Potency, µM (highest dose often 57.9 µM), for inactives: at the top dose signal change, negative = less light | AID 1159524, 2015; active = well fitted falling curve with a large enough effect; inconclusive = small, poorly fitted or top-dose-only effect; inactive = no such curve, though single readings can be large or run the other way; tested in HEK293T cells; further: on the % scale 0 is the no-effect control and ±100 the full control effect; nearly all actives have a fitted effect of over 45% in size; luciferase light after 4 h
Marburg entry inh = qHTS for inhibitors of binding or entry into cells for Marburg Virus; Marburg virus pseudotyped entry inhibition, cell reporter; control for the full effect not named in the record; about a third of the inactives were read at about 46 µM; Potency, µM (doses to about 37.8 µM), inactives show at the top dose activity change, negative = inhibition, usual class: inhibitors; 1.8% of 300,000 active; active = well fitted inhibition curve with a large enough effect; inconclusive = small, poorly fitted or top-dose-only effect, or effect the other way; inactive = flat fitted curve, though single readings scatter; tested in HEK293 cells; about a fifth of its hits are not listed in these tables; further: on the % scale 0 is the no-effect control and ±100 the full control effect; luciferase read-out
NS1 inh = qHTS Assay for Inhibitors of Influenza NS1 Protein Function. S. cerevisiae slowed by influenza A NS1, growth recovery by OD600. Potency, µM (series often up to 46.1 µM), for inactives: at the highest dose activity, positive = more growth. 0.4% of 270,000 active. AID 2326, 2010; active means well fitted rising curve with a large enough effect; inconclusive means small, poorly fitted or top-dose-only effect; inactive means no such curve, though single readings can be large or run the other way; further: nearly all actives have a fitted effect of over 50% in size
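Compounds were scored for reversing the slow growth caused by influenza A NS1 in S. cerevisiae, measured by optical density at 600 nm. Assay medium contained 2% galactose at pH 6.0; NS1-free yeast of the same strain were the positive control.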
SARS PLpro yeast = qHTS of Yeast-based Assay for SARS-CoV PLP; S. cerevisiae expressing SARS-CoV PLpro, growth rescue; control for the full effect not named in the record; Potency, µM (series often up to 32.9 µM), inactives show at the top dose activity, positive = growth rescue; 0.19% of 330,000 active; AID 485353, 2010; active means well fitted rising curve with a large enough effect; inconclusive means small, poorly fitted or top-dose-only effect; inactive means no such curve, though single readings can be large or run the other way; further: 0% is about no effect; nearly all actives have a fitted effect of over 55% in size; growth read by luminescence after 48 h
An asterisk follows results filed as active; ? = inconclusive; . = no result given; [ ] = remark or other dose. Unless noted, the call rests on the fitted dose curve; in most records, active means well fitted curve in the direction sought with a large enough effect; inconclusive means small, poorly fitted or top-dose-only effect, or another doubt; inactive means no such curve, though single readings can be large; an effect the other way counts as inactive or inconclusive. Potency means the concentration at half of the fitted maximal effect.

SMILES	StopGo reporter	NS1 inh	Marburg entry inh	SARS PLpro yeast	RE007 growth inh	Cruzain Triton	Lassa entry inh	Cruzain noTriton
CCOc1ccc(-n2c(O)c(C=NCCN(CC)CC)c(=O)[nH]c2=O)cc1	2%	7%	-1%	4%	-3%	1.6%	21%	-14%
CCC1=C(OC(=O)N(CC)CC)N2C(=O)OC(=NCCc3c[nH]c4ccccc34)[C@]2(Cc2ccccc2)[C@H]2C1=CC[C@H]1C(=O)N(CC)C(=O)[C@H]12	-10%	1%	.	2%	2%	-8.6%	.	?
CC(C)c1ncc(C(O)c2cccc3ccccc23)n1C (stereo not drawn)	-25%	?	?	-3%	3%	-0.8%	-6%	-4%
COCc1ccc(O)c2ncccc12	-29%	-141%	?	-35%	?	3.9%	?	-7%
CCOC(=O)CCn1cnc2onc(-c3ccccc3Cl)c2c1=O	2%	.	16%[46.1 µM]	.	.	-2.6%	3%[46.1 µM]	6%
CC(C)(C)OC(=O)NCCCCc1cn(CC(=O)N2CCN(C(=O)OC(C)(C)C)CC2)nn1	-24%	7%	.	-1%	1%	.	.	.
CCn1c(-c2ccc(F)cc2)cnc1SCC(=O)N1CCc2ccccc21	.	3%	28%	?	.	-2.8%	?	0%
C1CC1C(=NN=C(C1CC1)C1CC1)C1CC1	-11%	.	-18%[46.1 µM]	.	8%	.	10%[46.1 µM]	.
Brc1ccc(N=Cc2ccccn2)cc1	26%	-5%	?	3%	.	-0.3%	?	4%
COc1cccc(C2=NOC(C(=O)NCc3ccc(F)cc3)C2)c1 (stereo not drawn)	-9%	-18%	15%	-5%	-10%	2.7%	-7%	7%
COc1ccccc1C(=O)NC(=O)COC(=O)c1ccc([N+](=O)[O-])cc1	-7%	.	4%	.	-5%	.	-10%	.
Cc1ccc(C(=O)N2CCOCC2)cc1S(=O)(=O)N1CCCCC1	-5%	8%	11%	6%	-8%	.	0%	.
Cc1n[nH]c(C)c1Sc1ccccc1N	-5%	5%	2%[46.1 µM]	3%	6%	.	8%	.
CCCCCCn1c(N2CCN(c3cccc(Cl)c3)CC2)nc2c1c(=O)[nH]c(=O)n2C	?	-31%	?	3%	3%	-3.3%	-28%	?
COc1ccc(-n2c(SCC(=O)Nc3nc(C)cs3)nnc2-c2ccoc2C)cc1	-21%	-4%[9.22 µM]	-24%	-25%	4%	-5.6%	-4%	0%
Cc1cccc(OC(C)C(=O)Nc2cc(S(=O)(=O)N3CCCCC3)ccc2C)c1 (stereo not drawn)	-2%	.	26%	-5%	15%	.	?	.
Cc1cc(C)c2nc(N3CCCC(C(=O)NCc4cccc(Br)c4)C3)sc2c1 (stereo not drawn)	13%	.	-3%[46.1 µM]	.	.	-2.5%	.	-8%
O=S(=O)(c1ccccc1C(F)(F)F)N1C=CC(C(F)(F)F)=NCC1	5%	-2%	.	0%	5%	.	.	.
CN(C)S(=O)(=O)c1cccc(C(=O)OCC(=O)c2c(N)n(C)c(=O)n(C)c2=O)c1	-4%	.	-7%[46.1 µM]	1%	10%	.	9%	.
CC1CN(C)C(C)CC1NCc1ccc2c(c1)OCO2 (stereo not drawn)	-19%	5%	-18%[46.1 µM]	0%	8%	1.5%	-1%	-8%
Cc1ccc(C(=O)ONc2ccc(N=NC(=O)c3ccccc3O)cc2)cc1	?	?	-9%	3%	-16%	-1.1%	-9%	?
CC1Cc2ccccc2N1C(=O)/C=C/c1cccc(F)c1 (stereo not drawn)	10%	.	.	-2%	-28%	.	?	.
Cc1ccccc1S(=O)(=O)Cc1ccc(C(=O)NC(C)c2ccccc2)o1 (stereo not drawn)	-5%	-12%	-20%[46.1 µM]	2%	-6%	.	-13%[46.1 µM]	.
CCOc1ccc(CCNC(=O)CN2CCN(Cc3ccccc3F)C2=O)cc1OCC	6%	1%	?	5%	12%	4.9%	?	15%
CC(C)Sc1ncc(Cl)c(C(=O)Nc2nnc(C(C)C)s2)n1	-24%	.	-3%[46.1 µM]	.	.	-6.7%	12%[46.1 µM]	-7%
CCn1c(SC)nnc1C1CCCN(CC(=O)Nc2ccccc2N2CCOCC2)C1 (stereo not drawn)	-2%	-13%	?	3%	-15%	.	-2%	.
CCOC(=O)c1ccc(NC(=S)NCCCN2CCCCC2)cc1	12%	10%	?	3%	10%	7.2%	1%	8%
CCC12CSc3nc(Cl)ccc3N1C(=O)C(=O)N2C (stereo not drawn)	7%	-3%	.	1%	10%	.	.	.
COc1ccccc1-c1ccc(=O)n(CC(=O)NC2CCc3ccccc32)n1 (stereo not drawn)	-9%	-54%	?	-5%	-5%	.	0%[46.1 µM]	.
CC(=O)OCC(=O)c1ccc2ccn(C(C)=O)c2c1	7%	-6%	2%	-7%	-3%	-8.2%	10%	-11%
Cc1cc(CN2CCN(CC(=O)Nc3cc(C(F)(F)F)ccc3-n3cncn3)CC2)no1	-17%	.	-9%	1%	3%	.	6%	.
CCOc1ccc(Oc2nc(NCC(C)C)nc(NC(C)(C)C)n2)nn1	-1%	.	18%[46.1 µM]	.	.	-5.1%	-3%[46.1 µM]	23%
CC(=O)N(c1cccc(Cl)c1)c1nc(C)cc(C)c1C#N	1%	3%	.	-1%	11%	.	.	.
COc1ccc(C(=O)NCCNc2nc3c(C)cccc3cc2C#N)cc1OC	-27%	8%	.	5%	0%	.	.	.
O=C(NCc1cccnc1)c1sc2cc(Cl)ccc2c1Cl	-17%	-68%	-3%	-11%	15%	-11%	17%	0%
O=C1[C@@H]2CSC(c3ccc(Cl)cc3)N2C(=O)N1c1ccccc1 (stereo partly drawn)	?	.	0%[46.1 µM]	.	.	-4.0%	-2%[46.1 µM]	-2%
CN(CCNC(=O)c1cn(C)c2ccc(S(=O)(=O)N3CCCC3)cc2c1=O)CCc1ccccc1	.	-7%	?	10%	-8%	4.2%	-14%	-9%
Cc1ccccc1NC(=O)CCNS(=O)(=O)c1cccc2nsnc12	36%[activator]	25%	5%[46.1 µM]	10%	1%	.	9%	.
CN(C)S(=O)(=O)c1ccc(C(=O)OCc2ccc(C#N)cc2)cc1	-9%	-14%	1%	-2%	-5%	-1.1%	-4%	27%
COc1ccc(CCN2C(=O)CN(C3CCC(C)CC3)C(=O)C2c2ccc(OC(C)C)c(OC)c2)cc1OC (stereo not drawn)	-8%	.	.	.	.	1.3%	-8%[46.1 µM]	?
CCO[C@H]1OC(C(=O)N2CCN(C)CC2)=C[C@@H](C)[C@@H]1CCCO	-9%	-1%	.	-1%	1%	.	.	.
COc1ccc(NC(=O)C2CCC(CNS(=O)(=O)c3ccc(Br)s3)CC2)cc1OC (stereo not drawn)	-14%	.	-11%[46.1 µM]	.	.	-0.1%	-5%[46.1 µM]	5%
CN(C(=O)CCN1C(=O)C(C)(C)Nc2ccccc21)c1ccccc1	-26%	-2%	-3%	4%	-14%	2.5%	-2%	21%
CC1(C)Cc2c(sc3nc4n(-c5ccccc5)c(=O)c(CCC(=O)O)nn4c(=O)c23)CO1	-11%	12%	9%[46.1 µM]	0%	2%	.	10%	.
COc1ccccc1N1CCN(S(=O)(=O)c2ccc(-c3ccno3)cc2OC)CC1	-22%	.	.	.	.	-3.5%	-22%[46.1 µM]	?
COc1ccc(OCC(O)COc2ccc(OC)cc2)cc1	-2%	-47%	-1%	10%	-6%	-2.3%	-13%	7%
CCOC(=O)CC1Sc2ccccc2NC1=S (stereo not drawn)	20%	2%	18%[14.2 µM]	1%	16%	.	-10%	.
CCOc1ccccc1C1C(C(=O)Nc2ccccc2)=C(C)Nc2nc(-c3ccccc3)nn21 (stereo not drawn)	-19%	.	-20%[46.1 µM]	.	.	-10%	5%[46.1 µM]	?
Cc1ccccc1NC(=O)c1ccccc1N(C)S(=O)(=O)c1ccccc1	-2%	.	-23%[46.1 µM]	.	54%	.	1%	.
N#Cc1c(Nc2ccccc2)sc(C(=O)C2CC2)c1N	-17%	-3%	4%	6%	-8%	1.9%	.	?
O=C(C1CC1)N1CCc2cc(Br)cc(S(=O)(=O)N3CCOCC3)c21	-18%	-37%	?	-23%	17%	2.1%	-28%	-7%
COc1ccc(Nc2nc(N)c(C(=O)c3ccc(F)cc3)s2)cc1	13%	-6%	.	-4%	4%	.	.	.
O=C(COC(=O)c1ccccc1[N+](=O)[O-])NC(=O)c1ccccc1	35%[activator]	.	-14%	9%	35%	.	11%	.
COc1ccc(OC)c(S(=O)(=O)n2ccnc2C(C)C)c1	13%	-3%	?	-7%	-2%	.	2%	.
CCOc1ccc(C(=O)CCC(=O)N2CCN(c3ccccc3O)CC2)cc1	35µM*	.	?	-1%	-2%	.	?	.
O=[N+]([O-])c1ccc(Oc2cccc(C(F)(F)F)c2)nc1	0%	6%	.	3%	7%	.	.	.
CC(NC(=O)C1CCCO1)c1ccccc1 (stereo not drawn)	-17%	6%	15%	1%	-2%	0.0%	25%	3%
C#CCOCCOCCOCCNc1nc(N2CCOCC2)nc(N2CCN(C(=O)[C@H](Cc3cc4ccccc4[nH]3)n3cc([C@@H](N)C(C)CC)nn3)CC2)n1 (stereo partly drawn)	-19%	-3%	.	-2%	-7%	.	.	.
O=C(Nc1ccc(C(F)(F)F)cc1)C1CCC(CNS(=O)(=O)c2cccc3nsnc23)CC1 (stereo not drawn)	-3%	.	?	.	.	1.9%	6%[46.1 µM]	-4%
